# Screens (PubChem)
# VDR inh: inhibitors of human vitamin D receptor. actives 0.93% (n = 400,000). P11473. Potency, µM, for inactives: max response, negative = inhibition, most hits filed as inhibitors. VDR-SRC2-3 peptide fluorescence polarization, 2 h; active = well fitted inhibition curve with a large enough effect; inconclusive = small, poorly fitted or top-dose-only effect, or another doubt; inactive = no such curve, though single readings can be large or run the other way; note: series mostly up to about 120 µM
# Target sequence (P11473 whole entry, looked up): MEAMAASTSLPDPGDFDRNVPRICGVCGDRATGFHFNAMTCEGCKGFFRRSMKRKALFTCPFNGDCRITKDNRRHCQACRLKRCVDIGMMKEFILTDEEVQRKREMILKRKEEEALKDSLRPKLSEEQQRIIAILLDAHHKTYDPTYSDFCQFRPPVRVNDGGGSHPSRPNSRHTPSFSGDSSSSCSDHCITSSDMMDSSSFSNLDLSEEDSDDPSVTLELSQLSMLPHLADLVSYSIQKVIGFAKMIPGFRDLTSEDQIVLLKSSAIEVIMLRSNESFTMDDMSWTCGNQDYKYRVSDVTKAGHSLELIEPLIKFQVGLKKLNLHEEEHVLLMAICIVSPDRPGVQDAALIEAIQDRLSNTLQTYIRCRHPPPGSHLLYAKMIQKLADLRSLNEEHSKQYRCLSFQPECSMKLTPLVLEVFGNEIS
#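 Fluorescence polarization assay of small-molecule disruption of VDR binding to coregulator peptide SRC2-3. Compounds and controls pin-transferred, then read after 2 h incubation at ambient room temperature.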
# * hit, by the source's call; ? = inconclusive. % is set by controls: 0 for no effect and ±100 for the full control effect; potency is the fitted concentration of half-maximal effect. These rows are one share of the data. The share of hits here may be higher or lower than overall.
SMILES,VDR inh
COc1ccc(C(=O)C2CCCN(S(=O)(=O)c3cccc(C)c3)C2)c(C)c1 (configuration not stated),-28%
Fc1ccc(/C=C2\CCCC3=C2Nc2ncnn2C3c2ccc(F)cc2)cc1 (configuration not stated),?
O=C(Nc1ccccc1F)C1(c2ccccc2)CC1(Cl)Cl (configuration not stated),-7%
Cc1nc2sccn2c1-c1nc(-c2cc3ccccc3o2)cs1,0%
COc1ccc(C23CC4CC(CC(C(=O)O)(C4)C2)C3)c(F)c1,-8%
N#Cc1cccc(C#N)c1Oc1ccc(N)cc1,1%
Cn1c(SCC(=O)NC2CC2)nnc1C(F)(F)F,-12%
CCN1CCN(CCCNC(=O)C2c3ccccc3C(=O)N(c3ccc(OC)cc3)C2c2ccc(OC)cc2)CC1 (configuration not stated),-6%
Nc1c(N(Cc2ccccc2)C(=O)COc2cccc(Cl)c2)c(=O)[nH]c(=O)n1Cc1ccccc1,?
CCNc1ccc(C(=O)OCC(=O)NCc2ccc(C)cc2)cc1[N+](=O)[O-],-5%
N#Cc1cc[n+](CC(=O)c2ccc(NC(=O)c3ccccc3)cc2)cc1,-22%
Cc1ccc(S(=O)(=O)NCC(c2ccc(N(C)C)cc2)N2CCc3ccccc32)cc1C (configuration not stated),0%
COc1cc2c3nc4n(c(=O)c3n(CC(=O)N3CCCC3)c2cc1OC)CCS4,14%
CC(C)[C@H](NC(=O)c1ccco1)C(=O)N(C)Cc1ccc(C(F)(F)F)cc1,3%
CCCCCC(=O)CC[C@@H]1[C@@H](C/C=C\CCCC(=O)O)[C@@H](O)C[C@H]1O,-2%
O=C(c1ccc(CS(=O)c2ccccc2Cl)o1)N1CCOCC1 (configuration not stated),-17%
C/C(=N\NC(=O)c1nnn(-c2nonc2N)c1-c1cccs1)c1cccnc1,-1%
CCOc1ccc(CCNC(=O)c2cc(=O)[nH]c3ccc(S(=O)(=O)N4CCCCC4C)cc23)cc1OCC (configuration not stated),13%
Cc1cc(C)c(C(=O)COC(=O)CN2C(=O)NC3(CCCC3)C2=O)cc1C,-13%
CSc1ccccc1C(=O)N1CCCCC1,-10%
COc1ccc(-c2nnc(NC(=O)c3ccccc3C)o2)cc1,5%
COc1ccc2c(c1)c1ncn(CC3CCCO3)c(=O)c1n2C (configuration not stated),8%
Cc1cccc(NC(=O)CN2C(=O)S/C(=C\c3cccn3-c3cccc(C(=O)O)c3)C2=O)c1,6%
CCOC(=O)Cc1nnc(Nc2cccc(C)c2)c2ccccc12,-1%
CCN(Cc1ccccc1)Cc1c(O)ccc2c(=O)c(-c3ccc(Cl)cc3)coc12,-3%
Cc1ccc(S(=O)(=O)N2CCC(C(=O)NNC(=O)c3ccncc3)CC2)cc1,-21%
O=C(/C=C/c1ccc([N+](=O)[O-])cc1)c1ccccc(=O)c1O,25µM*
CCOc1ccc2c(CC)cc(=O)oc2c1OCC,?
CN(CC(=O)Nc1ccc(N2CCOCC2)cc1)C(=O)CCCOc1ccc(Cl)cc1Cl,18%
Cc1ccc(NC(=O)Cn2c(=O)n(Cc3ccco3)c(=O)c3ccccc32)cc1,-4%
O=C(Nc1ccc(OC(F)(F)F)cc1)Nc1cccc([N+](=O)[O-])c1,-10%
CC(=O)C1(C)C(=O)N(c2ccc(F)cc2)C(=O)N1c1ccc(F)cc1 (configuration not stated),-6%
COc1ccc(S(=O)(=O)N2CCN(C)CC2c2ccccc2)cc1 (configuration not stated),0%
COc1ccc(-c2cc(-c3ccc4c(c3)NC(=O)CO4)nc3c2COc2ccc(F)cc2-3)cc1,-16%
COCCNC(=O)c1cc2nc(-c3ccccc3)cc(C)n2n1,-6%
COC(=O)c1ccc(NC(=O)C(=O)NCCc2sc3nc(-c4ccc(OC)cc4)nn3c2C)cc1,-2%
COc1ccc(/C=N\NC(=O)c2ccc(Cn3cc(Br)c([N+](=O)[O-])n3)o2)c(OC)c1C,0%
CN(CCOc1ccccc1)C(=O)c1ccc(OC2CCN(C(=O)C3CC3)CC2)cc1,-5%
O=C(Nc1cnc2ccccc2c1)C1COc2ccccc2O1 (configuration not stated),17%
Cc1occc(=O)c1OCc1ccc(F)cc1,-6%
O=c1c(/C=N/Nc2ccccc2)c(Sc2nnnn2-c2ccccc2)nc2ccccn12,-12%
COc1ccc(-n2c(=O)c3sc4ccccc4c3n(Cc3ccccc3)c2=O)cc1,17%
O=C1NC2=C(C(=O)CCC2)C(c2cccc([N+](=O)[O-])c2)N1 (configuration not stated),-19%
OC(c1cc(-c2ccc(Cl)cc2)nc2ccccc12)C1CCCCN1 (configuration not stated),-6%
CCn1c(SCC(=O)Nc2ccc3c(c2)OCCO3)nnc1-c1ccncc1,-6%
COc1ccccc1N(CC(=O)Nc1c(C)n(C)n(-c2ccccc2)c1=O)S(=O)(=O)c1ccccc1,-2%
CC(=O)N1CCc2c(sc(NC(=O)Cc3ccccc3)c2C#N)C1,19%
COC(=O)CSC1=C(C#N)C(c2sccc2C)CC(=O)N1 (configuration not stated),-5%
O=C(OCC(=O)N1CCc2ccccc21)c1cccnc1,5%
FC(F)(F)c1ccc(/C=N/n2c(C3CCCCC3)n[nH]c2=S)cc1,3%
CN(C)c1ccc(CN(CC2CCCO2)C(=O)c2cccs2)cc1 (configuration not stated),-15%
Cc1csc(NC(=O)C2CCN(C(=O)CSc3nnc(C)n3Cc3ccccc3)CC2)n1,-13%
CCN(CC(=O)Nc1ccccc1C(F)(F)F)C(=O)Cc1ccc2c(c1)CCC2,0%
CC(=O)Nc1c2c(nn1-c1cccc(C)c1)CSC2,14%
Nc1nc2c(s1)CC(c1ccccc1)CC2 (configuration not stated),-13%
CCCN1C(=O)C(Cc2nc3ccccc3c(=O)n2C)c2ccccc21 (configuration not stated),10%
CCOc1ccc(-n2ccnc2SCC(=O)NCc2ccc3c(c2)OCO3)cc1,-11%
C=CCN(c1ccccc1C(=O)O)S(=O)(=O)c1ccc(C)cc1,3%
CCCCCC1CCC(c2nnc(SCC(C)=O)o2)CC1 (configuration not stated),6%
O=C(Cn1cc(S(=O)(=O)N2CCCC2)c(S(=O)(=O)N2CCCC2)c1)Nc1ccc(F)cc1,5%
# (next part)
SMILES,VDR inh
O=C(Nc1cccc(Cl)c1)Nc1nnc(-c2ccccc2)o1,-6%
O=S1(=O)C=C(N2CCOCC2)c2ccccc21,7%
COC(=O)CSc1ncnc2c1sc1nc(N3CCOCC3)c3c(c12)CCCC3,-6%
O=c1cc(N2CCc3ccccc32)[nH]c(=O)n1-c1ccccc1Cl,-4%
O=C(Nc1cccc(Cl)c1)c1cc(S(=O)(=O)N2CCOCC2)cs1,-14%
COC(=O)NC1CSCC1OC(=O)CCN1C(=O)c2ccccc2C1=O (configuration not stated),-2%
CCC(=O)Nc1c(C(=O)N2CCN(c3ccc(F)cc3)CC2)oc2ccccc12,-11%
COc1cc(CN2CCN(c3cccc(C)c3C)CC2)cc(Br)c1O,15%
CC(C)CCCC(C)C1CCC2C3CC[C@H]4CC(=O)CC[C@@]4(C)C3CC[C@@]12C (some centres not stated),0%
NS(=O)(=O)c1ccc(Sc2ccccn2)c([N+](=O)[O-])c1,16%
CCOC(=O)c1cc(-c2ccc(F)cc2)n(CCC(=O)Nc2nc3ccc(OC)cc3s2)c1C,-2%
CC(C)Oc1cccc(C(=O)N2CCCC2)c1,-22%
C=CCn1c(SCC(=O)Nc2cc(C)ccc2OC)nnc1-c1ccco1,-3%
Cc1ncsc1C(=O)Nc1nc2c(s1)CC(C)CC2 (configuration not stated),8%
CN(CC(=O)Nc1cccc(F)c1)C(=O)c1cc(-c2ccccc2)nc2ccccc12,-8%
COC(=O)c1ccc(NC(=O)CSc2cn(CC(=O)N3CCCCC3)c3ccccc23)cc1,6%
CCn1cc(CNC(=O)CSc2nc(-c3ccc(OC)c(OC)c3)cc(C(F)(F)F)n2)c(C)n1,-6%
CCCn1c2ccccc2c2cnn(CC(=O)NCCCN3CCN(c4ccccc4)CC3)c(=O)c21,-20%
CCCCNC(=O)[C@]1(C)CCC[C@@]2(C)C3CC[C@@]4(C)C[C@]3(CCC21)CC4=O (some centres not stated),-15%
O=S1(=O)c2ccccc2C(O)(c2ccccc2)c2ccccc21,-7%
CCOc1cc(/C=N/n2c(C)nc3ccccc3c2=O)ccc1O,-8%
Cc1ccc(OCC(=O)Nc2ccc(S(=O)(=O)N3CCOCC3)cc2)c(Br)c1,-5%
C/C(=N\NC(=O)c1cccnc1)c1cc(C)oc1C,-1%
CC1CCCC(NC(=O)/C=C/c2c(F)cccc2Cl)C1C (configuration not stated),7%
O=C(NCC(c1ccc2c(c1)OCO2)N1CCOCC1)C(=O)Nc1ccc(Cl)cc1 (configuration not stated),-9%
COCCn1c(C)cc(O)c(C(c2ccc(F)cc2)N2CCN(c3ccccc3)CC2)c1=O (configuration not stated),4%
CC(C)CNC(=O)c1ccccc1NC(=O)Nc1ccccc1,-5%
Cc1ccc(NC(=O)CCN2CCC(C(N)=O)CC2)cc1,-5%
CCCN(CCC)CCCNC(=O)Cn1ncc2c3ccccc3n(Cc3ccc(F)cc3)c2c1=O,12%
COc1cccc(C(=O)OCC(=O)NCCNC(=O)COC(=O)c2cccc(OC)c2OC)c1OC,19%
CC(C)c1csc2nc3n(c(=O)c12)CCCCC3,-1%
O=S(=O)(c1ccc2nc(N3CCN(c4ccc(F)cc4)CC3)ccc2c1)N1CCCCC1,7%
Cc1ccccc1C(=O)NCc1nnc(SCC(=O)N2c3ccccc3Sc3ccccc32)n1C,4%
CCC1(c2ccccc2)NC(=O)N(CC(=O)Nc2cccnc2Cl)C1=O (configuration not stated),-17%
O=C(CCl)Nc1cc(SCC(O)CO)cc([N+](=O)[O-])c1 (configuration not stated),-2%
Cc1nnc(SCC(=O)Nc2cccc(S(=O)(=O)NC3=NCCCCC3)c2)n1Cc1ccccc1,-11%
Cc1cccc(C(=O)OCC(=O)c2c(N)n(CC(C)C)c(=O)n(C)c2=O)c1O,14%
O=C(COc1ccc(Cl)cc1)Nc1c(-c2cccs2)nc2ccccn12,-13%
CC(=O)N1C(=O)C2(C(C#N)=C(N)Oc3n[nH]c(-c4ccccn4)c32)c2ccccc21 (configuration not stated),-15%
CCn1c(CCC(=O)Nc2nc3c(s2)CCCC3)nc2cc(S(=O)(=O)N(C)C)ccc21,5%
CCc1ccc(S(=O)(=O)NCc2cccs2)cc1,-11%
O=C1CSC2(C(=O)N(Cc3ccccc3)c3ccccc32)N1c1ccc(Cl)cc1 (configuration not stated),-2%
CCCCC1=CC2=CC(=O)C(C)(OC(=O)CC)C(=O)C2=CN1CCOC (configuration not stated),-16%
CC(C)Cn1c(SCC(=O)NC(=O)NC2CCCC2)nc2ccccc21,-5%
CCN1CCN(c2ccc(S(=O)(=O)N3CCOCC3)cc2NC(=O)c2sccc2C)CC1,-9%
O=[N+]([O-])c1ccc(O)c(CNCc2ccccc2)c1,3%
COCCCNC(=O)COC(=O)c1ccc(-c2nc3ccccc3s2)s1,-14%
CCC(C)c1ccc(NC(=S)NCCn2cc(Cl)cn2)cc1 (configuration not stated),-26%
C=CCNS(=O)(=O)c1ccc(N2C(=O)c3ccccc3C2=O)cc1,5%
CC(C)C(CCNC1CCN(C)CC1)c1ccc(Cl)cc1 (configuration not stated),13%
CCCN1CCN(C(=O)c2ccccc2-c2nc3ccccc3s2)CC1,-10%
COC(=O)[C@]1(C)N[C@H](CN(C)C(=O)Nc2ccc(Cl)cc2)[C@@H]2C(=O)N(Cc3ccccc3)C(=O)[C@@H]21,-9%
O=C(c1ccc(C(F)(F)F)cc1)C1CCCN(C(=O)Cn2cncn2)C1 (configuration not stated),-3%
NC(=O)C1(N2CCCCC2)CCN(S(=O)(=O)c2cc(Cl)sc2Cl)CC1,-4%
CCOC(=O)C1=C(CC)Nc2ccccc2N/C1=N\S(=O)(=O)c1cc(Br)ccc1Br,-5%
COc1ccc(-c2nn(-c3ccccc3)cc2/C=N/Nc2ccccn2)cc1OC,-5%
COc1cccc(-c2nnc3sc(-c4ccccc4)nn23)c1,3%

# Grouped by structure: the compounds so far containing fluorine (21)
SMILES,VDR inh
Fc1ccc(/C=C2\CCCC3=C2Nc2ncnn2C3c2ccc(F)cc2)cc1 (configuration not stated),?
O=C(Nc1ccccc1F)C1(c2ccccc2)CC1(Cl)Cl (configuration not stated),-7%
COc1ccc(C23CC4CC(CC(C(=O)O)(C4)C2)C3)c(F)c1,-8%
Cn1c(SCC(=O)NC2CC2)nnc1C(F)(F)F,-12%
CC(C)[C@H](NC(=O)c1ccco1)C(=O)N(C)Cc1ccc(C(F)(F)F)cc1,3%
O=C(Nc1ccc(OC(F)(F)F)cc1)Nc1cccc([N+](=O)[O-])c1,-10%
CC(=O)C1(C)C(=O)N(c2ccc(F)cc2)C(=O)N1c1ccc(F)cc1 (configuration not stated),-6%
COc1ccc(-c2cc(-c3ccc4c(c3)NC(=O)CO4)nc3c2COc2ccc(F)cc2-3)cc1,-16%
Cc1occc(=O)c1OCc1ccc(F)cc1,-6%
FC(F)(F)c1ccc(/C=N/n2c(C3CCCCC3)n[nH]c2=S)cc1,3%
CCN(CC(=O)Nc1ccccc1C(F)(F)F)C(=O)Cc1ccc2c(c1)CCC2,0%
O=C(Cn1cc(S(=O)(=O)N2CCCC2)c(S(=O)(=O)N2CCCC2)c1)Nc1ccc(F)cc1,5%
CCC(=O)Nc1c(C(=O)N2CCN(c3ccc(F)cc3)CC2)oc2ccccc12,-11%
CCOC(=O)c1cc(-c2ccc(F)cc2)n(CCC(=O)Nc2nc3ccc(OC)cc3s2)c1C,-2%
CN(CC(=O)Nc1cccc(F)c1)C(=O)c1cc(-c2ccccc2)nc2ccccc12,-8%
CCn1cc(CNC(=O)CSc2nc(-c3ccc(OC)c(OC)c3)cc(C(F)(F)F)n2)c(C)n1,-6%
CC1CCCC(NC(=O)/C=C/c2c(F)cccc2Cl)C1C (configuration not stated),7%
COCCn1c(C)cc(O)c(C(c2ccc(F)cc2)N2CCN(c3ccccc3)CC2)c1=O (configuration not stated),4%
CCCN(CCC)CCCNC(=O)Cn1ncc2c3ccccc3n(Cc3ccc(F)cc3)c2c1=O,12%
O=S(=O)(c1ccc2nc(N3CCN(c4ccc(F)cc4)CC3)ccc2c1)N1CCCCC1,7%
O=C(c1ccc(C(F)(F)F)cc1)C1CCCN(C(=O)Cn2cncn2)C1 (configuration not stated),-3%
